Screening data as filed in PubChem.
HPGD inh: qHTS Assay for Inhibitors of HPGD (15-Hydroxyprostaglandin Dehydrogenase); 15-hydroxyprostaglandin dehydrogenase [NAD(+)] (Homo sapiens), P15428; Potency, µM, inactives show at the top dose activity change, negative = inhibition, usual class: inhibitors; AID 894, 2007; 150,000 compounds, 4.3% hits; purified HPGD, NADH fluorescence kinetic, PGE2 substrate; active = well fitted inhibition curve with a large enough effect (not every such curve was filed as active); inconclusive = small, poorly fitted or top-dose-only effect, or another doubt; inactive = no such curve, though single readings can be large or run the other way;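 note: top concentration of the series not given in the record; plate controls included wells without enzyme; inactives centre near -10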
Target sequence (P15428 whole entry, looked up): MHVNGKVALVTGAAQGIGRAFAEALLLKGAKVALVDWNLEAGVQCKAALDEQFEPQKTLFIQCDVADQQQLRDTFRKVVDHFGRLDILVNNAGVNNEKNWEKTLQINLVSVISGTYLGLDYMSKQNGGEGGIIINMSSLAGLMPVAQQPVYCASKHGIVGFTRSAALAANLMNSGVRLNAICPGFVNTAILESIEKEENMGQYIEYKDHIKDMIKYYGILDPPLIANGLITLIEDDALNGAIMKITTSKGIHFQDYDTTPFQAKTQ
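NADH formation kinetics: reaction with 30 uM PGE2 and 1 mM NAD+ (final), 20 nM enzyme, Tris-HCl pH 8 with Tween 20, after 15 min compound preincubation at room temperature. Fluorescence change, last versus first of five reads.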
* = called active by the depositor; ? = inconclusive; & = joins results of further samples. % is set by controls: 0 for no effect and ±100 for the full control effect; potency is the fitted concentration of half-maximal effect.

SMILES	HPGD inh
Cc1ccc(N2CC(C(=O)OCc3ccc([N+](=O)[O-])cc3)CC2=O)cc1 (configuration not stated)	25µM*
CC(C)Cc1ccc(S(=O)(=O)N2CCCC2)cc1	-14%
COc1ccc(S(=O)(=O)N2CC3CCCN3c3cc(C(F)(F)F)ccc32)cc1 (configuration not stated)	-6%
CC(O)C(NS(=O)(=O)c1ccc(Cl)cc1)C(=O)OCc1nnc(-c2ccccc2)o1 (configuration not stated)	-14%
CC(C)C(OC(=O)c1cccs1)C(=O)NCc1cccs1 (configuration not stated)	-28%
NNC(=O)c1cc2c(s1)CCCCCC2	-4%
COC(=O)CC1=C(C(=O)OC)C(c2ccc3c(c2Cl)OCO3)C(C#N)=C(N)O1 (configuration not stated)	-5%
O=C(Cn1c(NCCO)nc2ccccc21)c1ccccc1	-2%
c1cn(CCCNc2ncnc3nc[nH]c23)cn1	-3%
CSc1ccccc1NC(=O)c1ccncc1	-13%
C=C1C(C2(C)C=CC(=O)C(C)(C)C2CC(=O)OC)CC[C@@]2(C)C(c3ccoc3)OC(=O)C3OC132 (some centres not stated)	-13%
O=C(/C=C/c1ccc2c(c1)OCO2)c1ccc[nH]1	-14%
O=C(c1scc2c1CCCC2)N1CCCCC1	8.9µM*
CCOC(=O)C1CCCN(CCC(=O)Nc2ccccc2)C1 (configuration not stated)	0%
CCc1ccc(NC(=O)CSc2nnc(-c3cnccn3)n2Cc2ccco2)cc1	-15%
Cc1ccc(-c2nn3c(-c4ccco4)nnc3c3ccccc23)cc1S(=O)(=O)N1CCOCC1	-12%
CCS(=O)(=O)N1Cc2ccccc2CC1C(=O)Nc1ccc(NC(C)=O)cc1 (configuration not stated)	-4%
COc1ccc(NC(=O)c2cc(-c3ccccc3OC)on2)cc1	-16%
CCSc1nnc(NC(=O)c2ccc3ccccc3n2)s1	-24%
Cc1ccc(/C=C/C(=O)NCc2ccc3c(c2)OCO3)o1	?
Cn1cnc2c1c(=O)n(Cc1ccc(F)cc1Cl)c(=O)n2C	-2%
O=C(Nc1cccc(-c2cnc3ccccc3n2)c1)c1cccc(NC(=O)c2ccco2)c1	-16%
O=C(CN(c1ccc2c(c1)OCCO2)S(=O)(=O)c1ccccc1)NCc1ccc(Cl)cc1	-12%
CN(C)C(=O)NCc1ccc(S(N)(=O)=O)cc1	-6%
C=CCn1c(=O)n2ncnc2c2c3c(sc21)CCCC3	-9%
(next part)
SMILES	HPGD inh
Cc1nn(C(C)(C)C)c(OC(=O)c2ccco2)c1Sc1ccccc1	-10%
COc1cc(NC(=O)c2cccs2)ccc1NC(=O)c1ccco1	-4%
CC1CCc2cc(F)ccc2N1C(=O)C1(C)CC1(Cl)Cl (configuration not stated)	-3%
CSc1nc(Oc2ccc3ccccc3c2)c2ccccc2n1	?
O=c1cc(CN2CCN(c3ccccc3F)CC2)c2cc3c(cc2o1)CCCC3	-8%
Cc1ccc(NCc2nnc(SCC(=O)Nc3cc(C)on3)n2C)cc1	7%
COc1ccc(CNc2nc3c(c(=O)n(Cc4ccc(F)cc4)c(=O)n3C)n2C)cc1	-18%
COC(=O)c1ccccc1NC(=O)N1CCN(S(=O)(=O)c2ccc(Cl)cc2)CC1	?
O=C(Nc1cc(C(F)(F)F)ccc1Cl)c1ccc(NC(=O)C(F)(F)F)cc1	-3%
COc1ccc(C(=O)Nc2cc(C(=O)c3ccccc3)c(C)oc2=O)cc1	-11%
COc1ccc(Nc2nc(NCc3ccco3)nc(N/N=C/c3ccccc3F)n2)cc1	-9%
c1ccc(-n2nnnc2-c2cnc(-c3ccncc3)nc2-c2cccs2)cc1	?
Cc1ccc(-c2cnc(-c3ccncc3)o2)cc1	?
O=C(CNC(=S)N(CCCN1CCOCC1)Cc1cccs1)NC1CC1	0%
COC(=O)C(=NNc1c(C)n(C)n(-c2ccccc2)c1=O)C(=O)OC	-7%
O=C(Cc1ccccc1)NCC1CCCO1 (configuration not stated)	-27%
O=C(NCC1CCCO1)c1cccc(Br)c1 (configuration not stated)	25µM*
COc1cccc([C@@H]2Oc3ccc(OC)cc3C(=O)[C@H]2O)c1	-7%&-25%
O=C(O)COc1c(-c2ccccc2)oc2ccccc2c1=O	-6%
Cc1cc(Cl)c(OCCOCCN2CCCCC2)c(Br)c1	-12%
CCc1ccc(C=NC23CN4CN(CN(C4)C2)C3)s1	-11%
Nn1c(SCC(=O)N2CCCCC2)nnc1-c1ccncc1	-5%
CN(C)S(=O)(=O)c1ccc(Cl)c(NC(=O)CSc2nc3c(cc2C#N)C(=O)CC(C)(C)C3)c1	-16%
O=C(c1cccs1)c1ccc(-c2cccs2)s1	?
Cc1cc(C)cc(NC(=O)CSc2nnc(Cn3c(=O)sc4ccccc43)n2C)c1	-2%
Carrying on.
SMILES	HPGD inh
C[N+](C)(C)CCO	-13%&-8%
CCCCCCn1c(SCC(C)C)nc2c1c(=O)[nH]c(=O)n2C	-16%
CCc1ccc2[nH]c(=O)c(CN(Cc3ccccc3OC)Cc3nnnn3Cc3ccco3)cc2c1	-15%
O=C(CN1C2=NCCN2c2ccccc21)c1cccs1	-3%
NC(=O)c1ccc[n+]([C@@H]2OC(COP(=O)([O-])OP(=O)(O)OCC3OC(n4cnc5c(N)ncnc54)C(OP(=O)(O)O)C3O)C(O)C2O)c1 (some centres not stated)	-3%
CCn1nc(C(=O)OCc2c(C)noc2C)c2ccccc2c1=O	-12%
O=c1oc2ccccc2cc1-c1csc(Nc2nc3c(F)cccc3s2)n1	-23%
Cc1n[nH]c2ccccc2c1=O	-5%
Cc1ccc(NC(=O)c2ccc3c(c2)nnn3C)cc1	-7%
Nc1nc(SCc2nc3sc4c(c3c(=O)[nH]2)CCCC4)n[nH]1	-9%
COC(=O)c1cc(=O)nc2sc(-c3cccs3)nn12	6%
CCOC(=O)C1CCN(Cc2nc(-c3ccc(OC)c(OC)c3)no2)CC1	-8%
CCCCC/C=C\C/C=C\CCCCCCCCCC(N)=O	-6%
COc1ccc(-c2ccc(SCC(=O)N3CCOCC3)nn2)cc1	-15%
O=C(Nc1ccccc1)c1ccccc1NC(=O)C(F)(F)F	-10%
Cc1cc(C)n(-c2cc(N3CCN(C(=O)c4ccc(C(C)(C)C)cc4)CC3)ccc2[N+](=O)[O-])n1	-17%
Cc1ccc(/C=N/NC(=O)c2ccoc2C)o1	-5%
O=C1C(Cl)=C(N2CCCCC2)C(=O)N1c1ccccc1	18µM*
COc1cccc(-c2nn(C)c3sc(C(=O)NCc4ccccn4)cc23)c1	?
Cc1ccsc1/C=C1/SC(=O)N(CC(=O)N2CCOCC2)C1=O	-19%
Cc1ccc(NC(=O)/C(=C\c2ccc3c(c2)OCO3)NC(=O)c2ccco2)cc1	-25%
COc1ccc(C2C(C(=O)N3CCOCC3)CCC(=O)N2c2cc(OC)c(OC)c(OC)c2)cc1 (configuration not stated)	-10%
CC(C)C(NS(=O)(=O)c1cccs1)C(=O)NCCN1CCN(c2ccccc2)CC1 (configuration not stated)	-6%
COc1ccc2cc(CN(CCc3ccccc3)Cc3nnnn3Cc3ccco3)c(=O)[nH]c2c1	-12%
CC1Cc2ccccc2N1C(=O)CSc1nc2ccccc2n1CC(=O)N1CCOCC1 (configuration not stated)	-5%
Further structures follow:
SMILES	HPGD inh
CCOC(=O)c1cc(C)nn1-c1nc(Cl)cc(OC)n1	-1%
CC(C)(C)NC(=O)Cn1c(=O)c(=O)n(Cc2ccccc2)c2ccc(Cl)cc21	?
Cc1ccsc1C(=O)NNC(=O)Nc1ccc(Cl)c(Cl)c1	1%
Cc1cc(NC(=O)Cn2cc(C(F)(F)F)cc(Cl)c2=O)no1	-15%
COC(=O)c1ccc(OC(=O)c2ccc(OCc3c(C)noc3C)c(OC)c2)cc1	-2%
Cc1ccc(C)c(C(=O)CN2C(=O)NC3(CCC(C)CC3)C2=O)c1 (configuration not stated)	-10%
COC(=O)C1=CN(C)C=C(C(=O)OC)C1c1ccccc1Cl	?
CC(=O)N1CCN(c2cccc(C)c2C)CC1	2%
CCC(Oc1ccccc1)C(=O)Nc1nc2c(s1)C(=O)CC(C)(C)C2 (configuration not stated)	-14%
CSc1cc(-c2ccccc2)n(Cc2ccccc2Cl)c(=O)c1C#N	-28%
CC(=O)c1cccc(NC(=O)Nc2cccs2)c1	-11%
COc1ccc(OC(C)C(=O)N2CCc3ccccc3C2)cc1 (configuration not stated)	25µM*
CC(C)c1ccc(/C=C/C(=O)NC(=S)Nc2ccc(CN3CCOCC3)cc2)cc1	-7%
Cc1oc(-c2ccccc2F)nc1CS(=O)(=O)CC(=O)NCCCc1ccccc1	-4%
COc1cccc(C2C(C(=O)NCc3ccccc3)=C(C)Nc3ncnn32)c1 (configuration not stated)	-23%
COc1ccc(S(=O)(=O)NC2CC(C)(C)NC(C)(C)C2)c(C)c1C	-6%
COc1ccccc1N1CCN(CC(O)COc2ccc(S(=O)(=O)N3CCOCC3)cc2)CC1 (configuration not stated)	-10%
CCSc1nnc(NC(=O)c2cccc(OCc3c(C)noc3C)c2)s1	25µM*
Cc1cc(S(=O)(=O)Nc2cccnc2)c(C)s1	-10%
CC(C)(C)c1[nH]nc2c1C(c1ccccc1OC(=O)N1CCOCC1)C(C#N)=C(N)O2 (configuration not stated)	-14%
Cc1nn(C)c(C)c1S(=O)(=O)N1CCCC(C(=O)NC2CCCCCC2)C1 (configuration not stated)	-13%
COc1ccc(CCN2C(=O)c3cccc4c(C(=O)N5CCCCC5)ccc(c34)C2=O)cc1OC	13µM*
CCCC(C)NC(=O)c1ccc(C2SCC(=O)N2Cc2ccco2)cc1 (configuration not stated)	-17%
N=C1/C(=C/c2cccn2CCOc2ccccc2)C(=O)N=C2SC=C(c3ccccc3)N12	-15%
CC(CC(=O)O)(CC(=O)O)c1ccccc1	-7%
Going on with the list.
SMILES	HPGD inh
Cc1cc(C)cc(-n2c3nc4ccccc4nc3c3c(=O)n(Cc4ccco4)cnc32)c1	?
Cc1ccc(NC(=O)NC(=O)N(C2CCCCC2)S(=O)(=O)c2ccccc2)cc1	-16%
CCn1cc(/C=N/NC(=O)c2ccc3c(c2)OCO3)c(C)n1	-13%
COC(=O)C1=C(C(=O)OC)C2C(C)=CC(C)=CN2C(C(=O)OC)=C1C(=O)OC (configuration not stated)	-25%
CCC(C(=O)NC1CCCCC1)n1c(SCc2ccccc2F)nc2ccncc21 (configuration not stated)	-11%
O=C1CC(N2CCN(c3ccccc3F)CC2)C(=O)N1c1ccc2c(c1)OCCO2 (configuration not stated)	-5%
CCOC(=O)c1ccc(N/C=C2/CCCC(C)C2=O)cc1 (configuration not stated)	-9%
N#CNC(N)=Nc1ccc(Cl)cc1	-18%
CCCc1nc2ccccc2c(=O)n1-c1c(C)n(C)n(-c2ccccc2)c1=O	3%
O=C1c2ccccc2C(=O)N1CCSc1nnc(-c2ccco2)n1Cc1ccccc1	-4%
Cc1ccc(C)n1CCN1CCN(C(=O)c2ccco2)CC1	-2%
CC(=O)Nc1ccc(C2=NN(CC#N)C(=O)SC2)cc1	-5%
CCc1ccc(C2CC(=O)NC(SCC(=O)OC(C)C)=C2C#N)cc1 (configuration not stated)	-7%
COc1ccc(NC(=O)C2CCN(S(=O)(=O)c3c(C)noc3C)CC2)cc1Cl	-5%
CCOC(=O)N1CCN(C(=O)c2cc(C)no2)CC1	-4%
CCOC(=O)c1nnn(CC(=O)Nc2ccccc2OC)c1C(=O)OCC	7%
CC(/C(O)=C(\C#N)c1nc2ccccc2n1C)N1C(=O)c2ccccc2C1=O (configuration not stated)	-8%
CCCCOC(=O)Nc1nc(C)c(C(=O)OCC)s1	-15%
O=C(/C(=N\O)n1cncn1)c1ccc(Br)cc1Br	-8%
NC(=O)COC(=O)CCCc1nc2ccccc2s1	-7%
CCOC(=O)C1[C@H]2C(=O)N(CCCOC)C[C@]23C=C[C@H]1O3 (some centres not stated)	-11%
COc1cccc(C(C)NC(=O)c2c(F)cccc2Cl)c1 (configuration not stated)	-16%
C=C(Cl)COC(=O)C1C2C=CC(C2)C1C(=O)O (configuration not stated)	-1%
Clc1ccc(OCCCCSc2ncccn2)cc1	-25%
Cc1ccc(NS(=O)(=O)c2cc(C(=O)NCc3ccccn3)ccc2Cl)cc1	-7%

A portion of the library; the hit share may differ from the screen's.
